# Screening results: PubChem, Fisher Drug Discovery Resource Center
# NPYLR7 ag: activates Aedes aegypti NPYLR7 receptor; HEK293T NPYLR7/Galpha15, GCaMP6s calcium fluorescence; activation, % at 10 µM; hit rate 0.15% among 270,000; AID 1259423; in the data active means activation above about 40%;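 further: 0% = vehicle and 100% = reference agonist at the receptor; some compounds past the cut are filed as inactive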
# NPYLR7 ag max-min: recorded beside NPYLR7 ag, whose call it bears; activation, %; measured here: Max-Min RFU normalised activation; some inactives read as strong as hits;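 span of the calcium signal over five minutes; 0% = vehicle and 100% = native peptide agonist; compound fluorescence can raise it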
# The depositor's hits bear a star; & = joins results of further samples. An excerpt. The share of hits here may be higher or lower than overall.
SMILES,NPYLR7 ag,NPYLR7 ag max-min
C1CCC(c2nc(CN3CCCCC3CCN3CCOCC3)no2)C1 (centres undefined),-0.9,1.2
CC(=O)Nc1scc(-c2cccs2)c1C(=O)OCC(=O)N(C)C,-0.4,-1.0
O=C(NCCNC(=O)C1CCN(C(=O)c2ccccc2F)CC1)c1ccccc1,-13.3,-10.9
O=C1CCCCC1Sc1nnnn1-c1ccc(O)cc1 (centres undefined),3.7,1.7
CC1(C)Cc2ccccc2-c2nc(CN3CCOCC3)[nH]c(=O)c21,-2.3,-3.1
COc1cc(C(=O)N2N=C(c3ccc4ccccc4c3)CC2c2ccccc2)cc(OC)c1OC (centres undefined),-4.9,-8.0
COc1ccc(CCOc2nc(-c3ccc(OC)cc3)n(-c3ccc(NS(=O)(=O)c4ccc(F)cc4)cc3)n2)cc1,-10.5,0.8
CC1(Cc2cccc(C(N)=O)c2)C(=O)Nc2c(Cl)cccc21 (centres undefined),1.4,1.0
Cc1csc(SCC(=O)N2CCCC(N(C)Cc3ccccc3)C2)n1 (centres undefined),0.7,-2.0
CNC(=O)Cn1c(-c2nnco2)cc2ccccc21,2.3,0.8
O=C(NC1CC(=O)N(c2ccc3c(c2)OCCO3)C1)N1CCC2(CC1)OCCO2 (centres undefined),-0.9,-2.0
O=C(NN=Cc1cccc(O)c1)c1cc(-c2ccc(Cl)cc2Cl)n[nH]1,0.4,-3.1
O=C(C=Cc1ccsc1)N1CCN(S(=O)(=O)c2ccc(Cl)c(Cl)c2)CC1,11.3,10.9
CC1=C(C(=O)OCC(C)C)C(c2ccsc2)NC(=O)N1 (centres undefined),-0.4,-2.5
COc1cc(OC)cc(-c2nccn2[C@@H](C)CO)c1,5.3,3.7
CC1(C)O[C@@H]2C[C@@](OCc3ccccc3C#N)(C(N)=O)CC(OCc3ccccc3C#N)[C@@H]2O1 (some centres undefined),3.4,10.7
Cc1ccc(NC(=O)COC(=O)CN2CCSC2=O)c(Cl)c1,16.4,5.3
COC(=O)N1N=C(C)CC1(O)c1cccnc1 (centres undefined),10.1,3.2
COc1ccc([C@@H]2C[C@H](NC(C)=O)C[C@H](C3CCCCC3)O2)cn1,0.1,-0.3
Cc1ccccc1Cn1c(CN2CCCCC2C)nc2c1c(=O)n(C)c(=O)n2C (centres undefined),-0.6,5.1
Nc1n[nH]c(S(=O)(=O)Nc2c(F)cccc2F)n1,0.4,4.9
C=CCN(Cc1cccnc1)C(=O)c1[nH]c2ccc(F)cc2c1C,-5.2,-7.2
O=C1/C(=C\c2ccccc2)SC(=S)N1C(=O)c1ccccc1,5.0,5.5
Cc1cnc(-n2cnnc2)c(-c2ccc(S(C)(=O)=O)cc2)c1,0.9,0.6
O=C(c1cn2cccnc2n1)N1CCOC(C(F)(F)F)C1 (centres undefined),10.4,8.1
Cc1cccc(-c2c(-c3ccccc3)ncn2CCc2ccccn2)n1,2.6,-7.7
CC(C)C(C)n1nccc1NC(=O)c1ccc(-n2cnnc2)nc1 (centres undefined),9.6,4.2
S=c1[nH]nc(COc2ccccc2Cl)n1-c1ccccc1,-9.1,-12.9
COc1ccc2sc(C(=O)NCC(F)(F)C(F)(F)F)c(Cl)c2c1,-6.7,-8.0
CCC1(C)NC(=O)N(N=Cc2cc(C)n(CC(C)C)c2C)C1=O (centres undefined),5.2,7.8
CSc1ccccc1OCc1cc(C(=O)NCC(C)Oc2cccnc2)no1 (centres undefined),12.8,10.6
CCC1CN(C(=O)c2ccc3cccnc3n2)CCC(=O)N1Cc1ccccc1 (centres undefined),-1.4,30.2
CCCN1C(=O)CCc2cc(NC(=O)CCc3ccc(OC)cc3)ccc21,0.9,-4.6
O=C(c1cnn(-c2ccc([N+](=O)[O-])cc2)c1-c1ccccc1)N1CCCC1,14.1,13.2
COc1cccc(CN(Cc2ccccc2)Cc2nc(C(=O)NCc3ccccc3)co2)c1OC,13.9,6.7
Cc1noc(NC(=O)CN2CCN(S(=O)(=O)c3c(C)c(C)c(C)c(C)c3C)CC2)n1,-1.1,-1.3

# Rewritten with tabs: entries from further up.
SMILES	NPYLR7 ag	NPYLR7 ag max-min
O=C(c1cnn(-c2ccc([N+](=O)[O-])cc2)c1-c1ccccc1)N1CCCC1	14.1	13.2
COc1cccc(CN(Cc2ccccc2)Cc2nc(C(=O)NCc3ccccc3)co2)c1OC	13.9	6.7
Cc1noc(NC(=O)CN2CCN(S(=O)(=O)c3c(C)c(C)c(C)c(C)c3C)CC2)n1	-1.1	-1.3

# Additional structures follow:
SMILES,NPYLR7 ag,NPYLR7 ag max-min
Cc1nn(CC(O)COc2ccc3c(c2)CCC3)c(C)c1Br (centres undefined),5.4,-1.1
COCC(=O)N1CCC(Oc2ccc(C(=O)N3C[C@@H](C)O[C@@H](C)C3)cc2)CC1,18.0,8.4
Cc1cn(-c2cc(NC(=O)c3ccc(C)c(Nc4nccc(-c5cccnc5)n4)c3)cc(C(F)(F)F)c2)cn1,-2.7,-9.7
CCC(CC)C(=O)N(C)c1c(C)nc2c(OCc3ccc(F)cc3)cccn12,-9.4,-11.5
C[C@H](C(=O)NCC1CC1)N1Cc2ccc(N3CCOCC3)nc2C1=O,-0.8,-1.5
O=C(O)c1cccnc1CN1CCCCC1CCc1cccs1 (centres undefined),1.2,-0.1
N#Cc1cccnc1Oc1ccc2c(c1)CCC(=O)N2,11.8&-0.5,6.6&-2.1
CC(C)c1ccc(NC2CCCN(C(=O)CN3C(=O)CSC3=O)C2)cc1 (centres undefined),2.1,1.4
CC(NC(=O)Cn1ccc(C(F)(F)F)n1)c1ccc(Cl)s1 (centres undefined),1.8,1.1
CC(C)CC(C#N)NC(=O)c1csc(-c2cnn(C)c2)n1 (centres undefined),-6.3,-7.1
COc1ccc(C2=C(C)SC3=NS(=O)(=O)CCN32)cc1,-5.0&0.9,-5.8&-2.8
O=C(OCC(=O)N1CCN(c2ncccn2)CC1)C1CC2CCC1C2 (centres undefined),2.9,1.7
Cc1cccc(CNC(=O)C2CCC(=O)N(CCCc3ccccc3)C2)c1 (centres undefined),0.5,0.5
CC(C)N1CCC(N2CCCC(N(C)Cc3ccccc3)C2)CC1 (centres undefined),6.4&-2.1,2.8&-5.0
CC1CN(Cc2nc3sc4c(c3c(=O)n2CC#N)CCCC4)CCO1 (centres undefined),-6.2,-6.0
COc1ccc2nc(C(F)(F)C(F)(F)F)c(C#N)c(N)c2c1,8.6,-0.5
O=C(CC1(O)C(=O)Nc2ccc(F)cc21)c1cccs1 (centres undefined),17.3,7.5
COc1cccc(-n2nnc3c(N4CCNCC4)ncnc32)c1,-6.0,-6.4
Clc1ccc(OCCSc2nc3ccccc3n2Cc2ccccc2)cc1,1.2,-5.2
CCN(CC)C(=O)C1(C)CCN1C(=O)C1(c2ccc(Cl)cc2)CC1 (centres undefined),3.3,2.2
O=c1c2cc3c(cc2nc2sc(NCc4ccc5c(c4)OCO5)nn12)OCO3,0.7,-2.4
COC(=O)C1(C(F)(F)F)C2C=CC(C2)N1S(C)(=O)=O (centres undefined),-1.7,-3.8
CCn1cc(Br)cc1C(=O)NCC(C)N1CCCC(C)C1 (centres undefined),0.3,-6.6
COc1cccc(C(=O)N2C(C(=O)NCc3ccco3)COC23CCN(C(=O)CC(C)C)CC3)c1 (centres undefined),0.3,6.5
Cc1ccc2oc(-c3cc(NC(=O)c4cccc([N+](=O)[O-])c4)ccc3Cl)nc2c1,-8.5,-6.3
COc1ccc(CCOC(=O)C2CCCCN2C(=O)c2ccc3ccccc3c2)cc1OC (centres undefined),-7.1,-9.0
CSC(CO)C(C)Nc1nc(N(C)C)cc(C(F)(F)F)n1 (centres undefined),7.6,2.8
COC(=O)CCSc1nnc(-c2ccncc2)n1-c1ccc(F)cc1,8.6,2.7
CC#CCN(Cc1ccco1)Cc1cn[nH]c1-c1ccc(OC)cc1F,18.5,6.1
CC(C)CC(=O)NC1(C(F)(F)F)NC(=O)N(c2ccccc2)C1=O (centres undefined),0.1,-1.3
Cc1cccnc1C1=NOCC(=O)N1C/C=C/c1ccccc1,0.6,-3.6
CCOC(=O)CCC(=O)Nc1ccc2[nH]cc(CCN3CCN(c4cccc(C(F)(F)F)c4)CC3)c2c1,1.1,8.5
COc1cc(C(c2ccc(C)o2)c2ccc(C)o2)c(O)c([N+](=O)[O-])c1,0.3,-0.2
Cc1cccc(COn2cccc(C(=O)Nc3ncc([N+](=O)[O-])s3)c2=O)c1,3.7,15.2
Cc1cc(C)c(C)c(OCc2nc(C(=O)NCC3CCCO3)cs2)c1 (centres undefined),29.1,27.8
CC(C)OC(=O)NN(C(=O)OC(C)C)[C@@H]1C=C(C(=O)NCC(N)=O)C[C@@H](O)[C@H]1O,-7.6,-18.8

# In a second layout: entries from further up
CC(C)CC(=O)NC1(C(F)(F)F)NC(=O)N(c2ccccc2)C1=O (centres undefined)
  NPYLR7 ag: 0.1	NPYLR7 ag max-min: -1.3

Cc1cccnc1C1=NOCC(=O)N1C/C=C/c1ccccc1
  NPYLR7 ag: 0.6	NPYLR7 ag max-min: -3.6

# (further entries)
SMILES,NPYLR7 ag,NPYLR7 ag max-min
COc1ccc2c(-c3ccccc3)cc(SCCC#N)nc2c1,-7.1,-7.8
CCc1nnc(NC(=O)COc2cccc3c2OC(C)(C)C3)s1,7.0,2.9
CCn1c(=O)n(CC(=O)NC(c2nc3ccccc3[nH]2)C(C)C)c2ccccc21 (centres undefined),4.2,6.3
CCOC(=O)C1=C(C)OC(=N)C(C(=O)OCC)C1c1ccncc1 (centres undefined),8.4,4.4
CCCS(=O)(=O)NCC1CN(c2ccccc2)C(=O)O1 (centres undefined),3.0,9.2
COCCN(CC(=O)N(Cc1cccn1Cc1ccccc1)C1CCCCC1)C(=O)c1cccc(Br)c1,28.0,26.7
COc1ccc(Nc2nc(N3CCN(Cc4ccccc4)CC3)nc(N)c2[N+](=O)[O-])cc1,-0.6,-2.8
CCCCC(=O)Nc1c(C)nc2ccc(Cl)cn2c1=O,4.8,3.8
CCC1(C)NC(=O)N(CC(=O)c2cc(C)n(C3CC3)c2C)C1=O (centres undefined),3.3,7.6
CCOC(=O)C1CCN(C(=O)c2csc(CSc3nnc(-c4cccs4)n3-c3cccc(C)c3)n2)CC1,-10.6,-2.9
CCOC(=O)c1cnc(-c2cccnc2)nc1NCCCN1CCOCC1,-6.4,-10.3
CNc1cccc(-c2ccc(OC)nc2)n1,0.0,-1.7
O=C(NCc1cccs1)c1cccnc1N1CCN(C(=O)c2cc(F)ccc2Cl)CC1,14.4,1.8
Cn1c(=O)c([N+](=O)[O-])c(N2CCN(C3CCCC3)CC2)c2ccccc21,12.7,7.6
CNC(=O)[C@H]1C[C@]2(CCCCN(C)C2=O)N(C(=O)c2cccs2)[C@H]1c1ccco1,4.7,13.1
Cc1cc(C)c(S(=O)(=O)Nc2ccc(-c3cn4ccc(C)nc4n3)cc2)c(C)c1,2.2,-1.0
Clc1ccc(C2CN(Cc3cc(-c4ccccn4)no3)CCO2)cc1Cl (centres undefined),23.9,20.9
CC1(C(=O)NCc2cccs2)CCN1Cc1ccc(-c2ccccn2)cc1 (centres undefined),-8.1,-3.8
CCCCCn1c(CCNC(=O)c2ccco2)nc2ccccc21,0.2,10.4
O=C1CC(C(F)(F)F)N(C(=O)CN2CCCC2)c2ccccc2N1 (centres undefined),8.4,6.6
CCCCN(C)c1nc(C)nc2[nH]ccc12,-3.0,-8.4
Cc1ccc(-n2ncc3c(=O)n(NC(=O)CCC4CCCCC4)cnc32)cc1C,11.0,4.7
CS(=O)(=O)CCC(NS(=O)(=O)/C=C/c1ccccc1)C(=O)NCc1nc2ccccc2s1 (centres undefined),5.6,13.3
COc1ccc(-c2csc(-n3[nH]c(-c4ccccc4)c(N=Nc4ccc(Cl)cc4)c3=O)n2)cc1,-9.1,0.5
O=C(Nc1nccs1)c1ccc(Br)o1,4.8&0.4,7.8&-2.5
COc1ccc(-n2ccnc2-c2cnc[nH]2)cn1,52.7,27.8
CNC(=O)[C@@H]1[C@@H](OC(N)=O)C(=O)N(C)C12CCN(C(=O)c1cc3ccccc3s1)CC2,23.4,22.2
Cc1nccc(C(=O)Nc2cccc(OC(F)(F)F)c2)n1,-0.7&4.8,2.2&1.3
Cc1ccc(-c2cn[nH]c2C2CCCN(C(=O)c3n[nH]c4c3CCC4)C2)cc1 (centres undefined),3.5,1.7
CC(=O)c1cccc(NS(=O)(=O)c2ccc(N/C=C\C(=O)c3ccc4c(c3)OCO4)cc2)c1,11.0,14.9
CSc1ccc(Cn2c(C)c(C(=O)NCCN(C)C)sc2=O)cc1,7.6,2.1
Cc1ncc(CN2CCN(c3nnc(C(F)(F)F)s3)CC2)[nH]1,10.2,5.9
CC(=O)NC(C)(C(=O)OCc1cnc(-c2ccccc2)s1)C1CC1 (centres undefined),0.7,-5.4
Cc1ccc(-c2nnc(SCC(=O)c3cccc(N4CCCC4=O)c3)o2)cc1,4.1,4.3
CCn1cc(C(=O)NCCc2ccc(Cl)cc2)c(S(=O)(=O)N2CCCCC2)n1,-8.1,-8.9
Cc1cccc(CO[C@]2(C(=O)NCCN3CCOCC3)CC(OCc3ccccc3F)[C@@H]3OC(C)(C)O[C@@H]3C2)c1 (some centres undefined),4.0,13.5
O=C(NN1C(=O)CSC1=S)c1ccc(OC(F)F)cc1,4.1,0.2
Cc1cccc(N2CCN(Cc3cc([N+](=O)[O-])cc4c3OCOC4)CC2)c1,-0.8,2.3
Cc1ncc(COC(=O)Cc2c(Cl)cccc2Cl)s1,8.6,4.5
COCCN(Cc1nccn1Cc1c(F)cccc1Cl)C(=O)CCc1ccccc1,3.1,5.9
CC1(C)C2CCC1(C)C(NC(=O)Cc1csc(-c3cccnc3)n1)C2 (centres undefined),-6.0,-5.0
CC(C)(Oc1ccc(Cl)cc1)C(=O)OCCOC(=O)c1cccnc1,4.2,-3.8

# Part of the list above in a different format.
mol	NPYLR7 ag	NPYLR7 ag max-min
Cc1cccc(COn2cccc(C(=O)Nc3ncc([N+](=O)[O-])s3)c2=O)c1	3.7	15.2
CCC1(C)NC(=O)N(N=Cc2cc(C)n(CC(C)C)c2C)C1=O (centres undefined)	5.2	7.8
